# Screens as filed in PubChem BioAssay.
# CDC25B-CDK2 inh: human CDC25B-CDK2/CyclinA binding inhibition; P30305+P24941; HTRF CDC25B-CDK2/CyclinA binding, anti-His/anti-Flag; hits give high values; z-score (test concentration not listed); actives 0.72% (n = 94,000);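 also: score is relative to mean and SD of negative controls; strong numbers were not always called active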
# HIV TAR-Tat: HIV-1 TAR-Tat binding disruption; HIV-1 TAR RNA, Tat peptide displacement FRET; hits give high values; z-score (no concentration beside the values); actives 0.6% (n = 100,000); AID 1259389;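 also: score is relative to mean and SD of negative controls; some compounds called inactive have numbers as strong as hits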
# * hit, by the source's call; nt = not tested or not shown.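 The calls were made as follows: active = z-score from 3 up in half or more of its runs; inactive = the rest.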
Compound | CDC25B-CDK2 inh | HIV TAR-Tat
CC1CSc2ccc(S(=O)(=O)N3CCC(N4CCCCC4)CC3)cc2NC1=O (configuration not stated) | nt | -0.57
Cc1ccc(Cl)cc1N1CCN(S(=O)(=O)c2cc(-c3noc(C4CC4)n3)cs2)CC1 | nt | -0.3
O=C(NCc1cccnc1)C(=O)Nc1ccccc1Oc1ccc(Cl)cc1Cl | -1.8 | nt
COc1ccc2c(=O)c(-c3ccccc3OC)c(C(F)(F)F)oc2c1 | -1.7 | nt
CCOC(=O)N1CCN(C(=O)Cn2ncc3ccsc3c2=O)CC1 | -1.9 | 0.62
CCOc1ccc2nc(-n3nc(C)c4c3NC(=O)CC4c3sccc3C)sc2c1 (configuration not stated) | nt | 1.2
COC(=O)c1ccc2c(=O)n3c(nc2c1)SC1CS(=O)(=O)CC13 (configuration not stated) | 0.42 | nt
O=C(c1csc(S(=O)(=O)N2CCN(C(=O)c3ccco3)CC2)c1)N1CCOCC1 | nt | 1.1
O=C(C(=O)N1CCN(c2ccccc2F)CC1)c1cn(CC(=O)N2CCOCC2)c2ccccc12 | nt | 2
CCCOC(=O)c1cc(O)c(O)c(O)c1 | nt | 26*
CC(=O)N1CCc2cc(S(=O)(=O)NC(CC(C)C)C(=O)O)ccc21 (configuration not stated) | -1.3 | nt
CN(C)CCNC(=O)C1CCCN(S(=O)(=O)N2CCOCC2)C1 (configuration not stated) | nt | 3
Cc1ccc(NS(=O)(=O)c2cc(-c3cc(C)no3)ccc2C)c(Br)c1 | nt | 1.7
Cc1nnc2sc(SCC(=O)Nc3nc4ccccc4s3)nn2c1=O | nt | -3
COc1ccc(-c2nc3nc4c(c(=O)n3[nH]2)CCC4)cc1 | 0.09 | -0.63
COc1ccc(NC(=O)N2c3ccccc3NC3=C(C(=O)CCC3)C2c2ccco2)c(OC)c1 (configuration not stated) | nt | 0.55
Cc1cccc(CN2CCN(Cc3c[nH]c4ccccc34)CC2)c1 | -0.8 | 0.74
Cc1cc(C)c(S(=O)(=O)Nc2cc3c(cc2C)n(C)c(=O)n3C)c(C)c1 | nt | 0.42
Cc1c(C(=O)N2CCCCC2)c(S(=O)(=O)N2CCOCC2)c(C)n1C | nt | -0.94
Cc1noc(/C=C/c2ccc(S(=O)(=O)Nc3cccc(Cl)c3)cc2)c1[N+](=O)[O-] | nt | 0.42
CCSCC1COC(c2cccn2Cc2ccc(F)cc2)=N1 (configuration not stated) | nt | -0.81
O=C(CCn1cccc(C(F)(F)F)c1=O)Nc1ccc(Cl)cc1 | -1.1 | nt
O=C(NCCCn1ccnc1)c1cc2c(ccc3ccccc32)oc1=O | -1.4 | nt
COc1ccc(-c2nc(CNS(=O)(=O)N(C)C)cs2)cc1 | 0.56 | 0.53
CC(C)CCC(O)(CCN1CCCCC1)c1ccccc1 (configuration not stated) | -1.1 | 1.9
CCS(=O)(=O)N1CCCc2ccc(NS(=O)(=O)c3ccccc3)cc21 | nt | -1.7
Cc1cc(C)cc(NC(=O)N2CCN(c3cc(N4CCCCC4)nc(C)n3)CC2)c1 | -1.2 | -0.34
COc1ccc(-n2c(SCC(=O)Nc3nccs3)nnc2-c2c[nH]c3ccccc23)cc1 | -0.77 | nt
CC(C)(CC(=O)Nc1cccnc1)Sc1ccc(Cl)cc1 | -0.94 | nt
CC(C)CC(C(=O)Nc1ccc2c(c1)OCCO2)N1Cc2ccccc2C1=O (configuration not stated) | nt | 1.1
COc1ccc(N=C2NC(=O)C(CC(=O)Nc3ccc(Br)cc3)S2)cc1 (configuration not stated) | -1.8 | 1.9
CCc1c(C)nc2nncn2c1NCc1ccc(F)cc1 | -1.5 | 0.73
c1ccc2[nH]c(C3CCCCC3)nc2c1 | 1 | 2
O=c1[nH]nc2ccc(S(=O)(=O)C3CCCCC3)nn12 | -0.53 | 0.71
CCOC(=O)/C=C(\C)Nc1ccc(OC)cc1 | -1.4 | nt
COc1ccc2c(c1)C=C(C(=O)N1CCOCC1)C=CO2 | -1 | -1.3
Cn1c(CCc2cccc(NC(=O)NC3CCCC3)c2)nc2ccccc21 | nt | 1.2
Cc1noc(C)c1CCc1nc(-c2ccc(Cl)cc2)no1 | -0.53 | 0.85
CC1CCN(C(=O)c2csc(S(=O)(=O)N3CCC(N4CCCCC4)CC3)c2)CC1 | nt | 0.21
Cc1c(C(=O)N2CCCCC2)c(S(=O)(=O)NCc2ccco2)c(C)n1C | nt | 0.99
Cc1noc(C)c1-c1nc(COc2ccc(/C=C(/C#N)S(C)(=O)=O)cc2)no1 | -2.4 | nt
O=c1[nH]nnn1-c1ccc(Cl)cc1 | -0.04 | 0.27
CCc1nc(SCC(=O)N2CCCC2)c2c(=O)n(C)c(=O)n(C)c2n1 | nt | 1.4
CCCNC(=O)C1CCCN(c2nc(C)nc3onc(C)c23)C1 (configuration not stated) | nt | 0.67
O=C(Oc1ccccc1)c1csc(-c2cccnc2)n1 | -1.4 | nt
CCCCCN1c2ccccc2S(=O)(=O)c2ccccc21 | nt | -0.65
COc1ccc(N(Cc2cc(CN3CCOCC3)cs2)S(=O)(=O)c2ccc(F)cc2)cc1 | nt | 0.56
CCN(CCCNC(=O)C1CCC(=O)N1C1CCCC1)c1ccccc1 (configuration not stated) | -2.8 | nt
CC(=O)N1N=C(c2cn(C(C)=O)c3ccccc23)OC1c1ccc(Br)cc1 (configuration not stated) | nt | -0.52
Cc1cccc(OCC(=O)OCc2cc(=O)n3nc(C4CC4)sc3n2)c1 | nt | -0.56
CCOC(=O)c1[nH]c(C)c(C(=O)NCCN(CC)CC)c1C | 1.1 | nt
Cc1ccc2cc(CCNC(=O)c3ccco3)c(=O)[nH]c2c1C | -1.3 | nt
O=C(c1ccc(CSc2nc3ccncc3n2Cc2ccc(F)cc2)cc1)N1CCOCC1 | -0.78 | 0.72
CN(C(=O)c1nn(C)c2c1CSc1ccccc1-2)c1cccc(Cl)c1 | -2.5 | 2.8
COc1ccc(-c2n[nH]c3c2C(c2ccc(O)cc2)NC3=O)cc1 (configuration not stated) | 2.1 | 0.76
Cc1ccc2onc(CNC(=O)Nc3cc(C)on3)c2c1 | nt | -0.54

# Further records.
Compound | CDC25B-CDK2 inh | HIV TAR-Tat
Cc1onc(-c2ccccc2)c1CNS(=O)(=O)c1ccc(N2CCOCC2)nc1 | -1.3 | nt
O=C(NC1CCCC1)C1CCCN1c1nnc(N2CCCC2=O)s1 (configuration not stated) | -1.4 | 1.2
Cn1c(C(=O)N2CCC(C(=O)N3CCN(c4ncccn4)CC3)CC2)cc2sccc21 | -0.86 | -0.71
O=C(Nc1ccccc1Cl)c1nn(-c2ccc(F)cc2)ccc1=O | 0.48 | 2.5
Cn1c(=O)n(C)c2cc(C(O)COc3ccc(CNCc4ccccc4)cc3)ccc21 (configuration not stated) | -1.1 | 0.53
CC(Cc1ccco1)NC(=O)Cn1c(=O)oc2ccccc21 (configuration not stated) | nt | 0.27
O=c1[nH]ccn(-c2ccc3c(c2)CCC3)c1=O | -1.7 | 3
O=C(CC(=O)c1ccccc1)c1ccccc1 | nt | 1.3
N#C/C(=C\c1ccc(-c2ccc(C(F)(F)F)cc2[N+](=O)[O-])o1)S(=O)(=O)c1ccccc1 | 0.86 | nt
Cc1cc(C(=O)OCC(=O)N2c3ccccc3Sc3ccccc32)c2ccccc2n1 | -2 | 0.37
O=c1c(SCc2cccc(F)c2)nccn1-c1ccccc1 | nt | 0.46
COc1ccc(Br)cc1CNCc1cccnc1 | -1.5 | 1.2
Nc1ccc(-c2ccc(CO)o2)cc1 | 8.5 | -1.6
CCOC(=O)c1nc(-c2ncccn2)no1 | 0.87 | 0.81
COc1ccc(-c2cnc(C)o2)cc1S(=O)(=O)Nc1ccc2c(c1)OCCO2 | nt | 2.2
Cc1cc2c3c([nH]c2cc1S(=O)(=O)N1CCN(c2ccc(F)cc2)CC1)CC(C)(C)CC3=O | nt | 0.3

# Entries shown so far containing a furan ring, fused or not (7):
Compound | CDC25B-CDK2 inh | HIV TAR-Tat
O=C(c1csc(S(=O)(=O)N2CCN(C(=O)c3ccco3)CC2)c1)N1CCOCC1 | nt | 1.1
COc1ccc(NC(=O)N2c3ccccc3NC3=C(C(=O)CCC3)C2c2ccco2)c(OC)c1 (configuration not stated) | nt | 0.55
Cc1c(C(=O)N2CCCCC2)c(S(=O)(=O)NCc2ccco2)c(C)n1C | nt | 0.99
Cc1ccc2cc(CCNC(=O)c3ccco3)c(=O)[nH]c2c1C | -1.3 | nt
CC(Cc1ccco1)NC(=O)Cn1c(=O)oc2ccccc21 (configuration not stated) | nt | 0.27
N#C/C(=C\c1ccc(-c2ccc(C(F)(F)F)cc2[N+](=O)[O-])o1)S(=O)(=O)c1ccccc1 | 0.86 | nt
Nc1ccc(-c2ccc(CO)o2)cc1 | 8.5 | -1.6

# Following part
# The line under a structure holds: CDC25B-CDK2 inh | HIV TAR-Tat
CC1=C(C(=O)OC(C)C)C(c2ccccc2OCc2ccccc2)C2=C(CCCC2=O)N1 (configuration not stated)
    -1.8 | -0.94
COc1ccc(Nc2nc(C)nc(N)c2S(=O)(=O)c2ccccc2)cc1
    -2.8 | 0.5
CCN1CCc2c(sc(-n3cccc3)c2C(C)NC(=O)Nc2ccc(Br)cc2)C1 (configuration not stated)
    nt | -7.7
O=C(Nc1nnc(SCc2nc3ccccc3[nH]c2=O)s1)c1cccs1
    nt | -3
CCOC(=O)c1c(C)oc2ccc(NS(=O)(=O)c3c(C)cc(C)cc3C)cc12
    -0.31 | nt
O=C(OCCn1c2ccccc2c2nc3ccccc3nc21)c1cccnc1
    -0.55 | 0.65
COc1ccc(C2C=C(C(=O)O)Nc3nnnn32)cc1Br (configuration not stated)
    nt | 0.45
CC(C)CCN1CCC(CNS(=O)(=O)c2ccc3c(c2)NC(=O)C(C)CS3)CC1 (configuration not stated)
    nt | -0.52
O=C(C1=NOC2(C(=O)c3ccccc3C2=O)C1c1ccccc1)c1cccs1 (configuration not stated)
    -2.2 | nt
CCCCc1ccc(-c2c3oc(N)c(C(=O)OCC)c3cc3oc(N)c(C(=O)OCC)c23)cc1
    -0.05 | 0.37
Cc1ccccc1CN1N=NC2C(=O)N(c3ccccc3Cl)C(=O)C21 (configuration not stated)
    -0.6 | 1.5
N#CC1=C2N=C(N)c3ccccc3N2C2=C(C(=O)CCC2)C1c1cccc(Br)c1 (configuration not stated)
    18* | -5.1
C=CCSC1=C(C#N)C(c2ccccc2C)C(C(=O)OC)C(=O)N1 (configuration not stated)
    -0.94 | 1.3
O=S(=O)(c1ccc2c(c1)OCCO2)N1CCc2cc3ccccc3nc21
    -1.3 | -1.8
COCCNc1cc(N2CCN(C(=O)c3ccco3)CC2)c2noc3c2c1C(=O)c1ccccc1-3
    0.55 | 2.8
COc1ccc2c(oc(=O)c3ccccc32)c1C
    -7.6 | 0.57
O=[N+]([O-])c1cc(S(=O)(=O)N2CCc3ccccc3C2)ccc1N1CCc2ccccc2C1
    -1.8 | nt
Cc1ncc(-c2ccc(C)c(S(=O)(=O)Nc3ccc(F)cc3F)c2)o1
    nt | 1
CCOC(=O)c1c(C)oc2nc(C)nc(N3CCN(Cc4ccc5c(c4)OCO5)CC3)c12
    nt | 0.54
CCOC(=O)CCSc1nc(C)c2cc(C)c(C)cc2n1
    -2.2 | -2.7
COC(=O)c1cc2sccc2n1CC(=O)Nc1cc(OC)cc(OC)c1
    -2.5 | 0.92
CCc1nnc(NC(=O)CSc2nccn2-c2ccc(Cl)cc2)s1
    -1.8 | nt
CN1C(=O)c2ccccc2C(C(=O)N2CCN(c3ccccc3F)CC2)C1c1cccs1 (configuration not stated)
    nt | 2.6
CC1CCCC(N2CCC(N3CCN(CCO)CC3)CC2)C1 (configuration not stated)
    -1.2 | nt
O=C(CSc1nc2ncccc2[nH]1)N1CCc2ccccc21
    -1.4 | 0.41
COC(=O)c1cc2occc2n1CC(=O)c1ccccc1
    -0.23 | 0.98
O=C(O)CCC(=O)N1CCCc2ccccc21
    -0.56 | 4
COc1cc(C2C(C(=O)OC(C)C)=C(C)NC3=C2C(=O)CC(C)(C)C3)cc(Br)c1O (configuration not stated)
    0.31 | 0.03
O=C(Cn1ncc2c(Cl)cccc21)N1CCc2ccccc2C1
    0.26 | 1.1
CC1CCCCC1NC(=O)CCCc1nnc2n(C)c(=O)c3sccc3n12 (configuration not stated)
    nt | -5.3
CCCCCCSc1nc2n(n1)C(c1ccc(OC)cc1)C1=C(CCCC1=O)N2 (configuration not stated)
    -1 | -1
Cc1nn2c(=O)cc(COc3c(C)cccc3C)nc2s1
    -0.74 | 0.88
COc1ccc(Nc2cc(C)nc(N3CCCCC3)n2)cc1
    0.5 | 0.89
O=C(CSc1nc2ncccc2o1)Nc1ccc2c(c1)OCCO2
    nt | -0.27
COc1ccc(S(=O)(=O)c2cn(C)c3cc(N4CCC(C)CC4)c(F)cc3c2=O)cc1
    nt | 0.85
Cc1cc(-c2ccc(S(=O)(=O)NC3CCCc4ccccc43)s2)n[nH]1 (configuration not stated)
    nt | -0.72
Cc1ccc(N2C(=O)CN(Cc3sccc3C)C2=S)c(C)c1
    -1.2 | nt
Cn1c(=O)c2sccc2n2c(CCCC(=O)NC3CCCCC3)nnc12
    nt | -0.76
Cc1nc(C#N)c(C#N)nc1C
    -1.2 | nt
CCOC(=O)c1cnc(SCc2cccc(Br)c2)nc1N
    nt | 1.6
COc1ccc(Cl)cc1NC(=O)/C=C/C(=O)O
    -0.48 | nt
Cc1ccc(Cn2c(N3CCN(CCO)CC3)nc3c2c(=O)n(C)c(=O)n3C)cc1
    -2 | 0.19
CC(=O)NC1=NN(C(C)=O)C2(S1)C(=O)N(C)c1c(C)cc(C)cc12 (configuration not stated)
    -1.1 | nt
Cc1ccn2c(=O)c(C(=O)NCc3ccc4c(c3)OCO4)c(O)nc2c1
    -0.83 | 0.13
CCOc1ccc(Oc2nc(NCC(C)C)nc(OC)n2)nn1
    -0.93 | -0.68
CSc1nccc(-c2ccc(S(=O)(=O)Nc3cc(C(F)(F)F)cc(C(F)(F)F)c3)s2)n1
    -2 | nt
O=C(NCc1ccccc1)C1CCN(C(=O)c2cc3sccc3n2Cc2ccc(F)cc2)CC1
    -2 | nt
O=C1c2cccnc2C(=O)N1Cc1ccc(F)cc1S(=O)(=O)N1CCc2ccccc21
    nt | -0.29
